Hsc70 ATP site: Hsc70 inhibitors, probe displacement, primary screen, biochemical, fluorescence polarization (AID 568). displacement, % at 20 µM; hits with a dose series show IC50 in µM. 83,000 tested, under 10 active. Hsc70 fluorescence polarization, probe displacement; higher % means a stronger effect; strong numbers were not always called active;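 active = displacement above 50% without optical interference and an IC50 on retest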;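 note: ATPase domain with a fluorescein-tagged ATP probe; 0% = vehicle and 100% = excess ADP; read after one hour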
WNV NS2B-NS3 inh: inhibitors of West Nile virus NS2B-NS3 protease | z-score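 (tested at a level between 10 and 100 µM)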 | P06935 | WNV NS2B-NS3 protease, fluorogenic substrate Ex360/Em465; stronger effect = lower value | 65,000 compounds, 0.18% hits;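 active = z-score at -3 or under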;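 note: score is relative to mean and spread of the compound wells of a plate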
Target sequence (P06935 1371-1501 limits assumed): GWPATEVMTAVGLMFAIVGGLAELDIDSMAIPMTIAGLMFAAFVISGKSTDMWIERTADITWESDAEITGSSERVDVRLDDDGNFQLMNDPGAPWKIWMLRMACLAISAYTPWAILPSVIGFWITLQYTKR
Target sequence (P06935 1502-1679 limits assumed): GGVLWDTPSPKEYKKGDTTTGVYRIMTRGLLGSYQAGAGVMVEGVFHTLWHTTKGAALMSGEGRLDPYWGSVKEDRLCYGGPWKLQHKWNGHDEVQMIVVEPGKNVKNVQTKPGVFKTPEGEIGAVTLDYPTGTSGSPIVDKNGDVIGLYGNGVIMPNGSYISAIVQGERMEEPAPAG
MT1-MMP reporter: inhibitors of MT1-MMP promoter transcription, cell-based, luciferase reporter, luminescence (AID 618). 87,000 compounds, 0.62% hits. MT1-MMP promoter luciferase reporter cells, luminescence. calls from a first round at 10 µM; hits with a dose series show EC50 in µM;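 active = over half of the reporter light lost at 10 µM or EC50 under 50 µM; inactive = the rest and hits that failed the dose series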;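 note: actives suppress MT1-MMP promoter-driven transcription so potencies describe inhibitors; HT1080 fibrosarcoma cells; overnight exposure; toxic or luciferase-blocking compounds were not removed from the actives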
* marks the source's active call; other numbers are inactive results; i = inactive; / = no result given. This is a random part of the collection (roughly 0.87% active in at least one column).

SMILES	Hsc70 ATP site	WNV NS2B-NS3 inh	MT1-MMP reporter
COc1ccc(C(=O)NCC(c2cccnc2)N2CCN(c3ccccc3)CC2)cc1OC (centres undefined)	-4.1%	-1.6	i
CCOC(=O)CSc1ncnc2c1sc1nc(N3CCOCC3)c3c(c12)CCCC3	0.3%	/	i
CC1(C)Cc2ccccc2-c2nnc(-c3ccc(O)cc3)n21	-2.7%	1.1	i
COC(=O)c1ccc(COc2ccc(-c3nn[nH]n3)cc2)cc1	-1.9%	-0.97	i
CCOCCCNC(=O)Cc1ccc(OC)c(OC)c1	1.9%	-0.04	i
Cc1cc(-c2n[nH]c(=S)o2)c(C)n1-c1ccccc1	5.3%	/	i
CCSc1nnc(CCNC(=O)OC(C)(C)C)o1	0.8%	/	i
CC1=C(C(N)=O)C(c2ccc(C)o2)C(C(N)=O)=C(C)N1	-1.3%	0.5	i
CCC(C)[C@H](NC(=O)NCc1cccs1)C(=O)OC (some centres undefined)	1.2%	0.83	i
O=[N+]([O-])c1ccc(N=Nc2ccc(O)cc2O)cc1	1.5%	/	i
Cc1cccc2nc(CSc3nncn3-c3ccccc3)cn12	3.3%	-0.31	i
COc1ccc(NC(=O)C2CCN(c3nc(C)nc4c3CCC4)CC2)cc1	1.0%	0.48	i
CCn1cc(C(=O)NCc2cccnc2)c(=O)c2cc(F)c(N3CCN(C(=O)c4ccco4)CC3)cc21	3.7%	/	i
CS(=O)(=O)N(CC(=O)NCc1ccco1)c1cc(C(F)(F)F)ccc1Cl	1.0%	-0.64	i
Cc1cc(N2C(=O)C3CC=CCC3C2=O)cc(C)c1Br (centres undefined)	-4.6%	-0.06	i
Cc1ccc(C2(c3ccc(C)cc3)NC(=O)N(Cc3c(C)noc3C)C2=O)cc1	0.6%	2	i
COc1ccc(-c2n[nH]c(C)c2-c2ccc(Cl)cc2)c(O)c1	0.3%	/	i
CCOC(=O)/C=C1\CC(=O)Nc2cc(C)c(C)cc2N1	-6.3%	-0.08	i
Cc1ccc(-c2cc3nc(-c4ccccc4)cc(N4CCOCC4)n3n2)cc1	-1.2%	/	i
C=CCNc1ncnc2ccccc12	4.8%	0.05	i
COC(=O)Cn1cc(C(=O)C2CC2)c2ccccc21	-0.6%	-0.97	i
COC(=O)c1ccc2c(c1)C(=O)N(C1CCCCC1)C2=O	2.6%	0.33	i
CCOCCCNC(=O)C(Cc1ccccc1)NC(=O)c1ccco1 (centres undefined)	0.0%	-0.03	i
COc1ccc(N2CCN(C(=O)c3ccc(N4C(=O)NC5CC4(C)Oc4ccccc45)cc3)CC2)cc1 (centres undefined)	7.7%	0.04	i
CC1=C(C(=O)N2CCCCC2)C(c2cccs2)NC(=O)N1 (centres undefined)	-1.1%	-0.11	i

Further results.
SMILES	Hsc70 ATP site	WNV NS2B-NS3 inh	MT1-MMP reporter
COc1ccccc1NC(=O)Cn1cnc2c(oc3ccccc32)c1=O	-1.3%	1	i
Cc1ccc2c(c1)nnn2C1CCN(CC(=O)c2ccc(Cl)cc2)CC1	-2.0%	0.74	i
c1ccc(Oc2nc(Oc3ccccc3)nc(N3CCOCC3)n2)cc1	-2.9%	-0.61	i
O=C(Nc1nccs1)C1CCCN1S(=O)(=O)c1cccc2cccnc12 (centres undefined)	4.3%	0.33	i
O=C(O)Cn1cnc2ccccc2c1=O	-1.1%	/	i
CCn1nc(C)c(NC(=O)/C=C/c2ccc(OC)c(COc3ccc(Cl)cc3Br)c2)c1C	1.5%	/	i
CCCCC(CCC(=O)Nc1ccc(C(=O)OC)cc1)C(=O)O (centres undefined)	-4.2%	-0.52	i
Cc1cccc(N2C(N)=NC(N)=NC23CCCCC3)c1	4.8%	-1.2	i
O=C(O)c1ccc(N2C(=O)C3ON(c4ccccc4)C(c4ccccc4F)C3C2=O)cc1 (centres undefined)	5.4%	0.02	i
O=C(Cn1nnc(-c2ccncc2)n1)NCCc1ccccc1	3.1%	0.44	i
CCCCNC(=S)NNC(=O)c1nn(C)c(C)c1Cl	-2.2%	/	i
CCOc1ccccc1Nc1nc(N)nc(CSc2nccc(C)n2)n1	6.0%	-1.2	i
CCCCOC(=O)n1c(=O)oc2ccccc21	0.8%	-1.7	i
CCOC(=O)Cc1csc(NC(=O)c2c(O)c3ccccc3n(CC(C)C)c2=O)n1	3.2%	/	i
CC1CCc2c(sc(NC(=O)c3ccc(Cn4cc([N+](=O)[O-])cn4)o3)c2C#N)C1 (centres undefined)	-6.0%	/	i
Cc1ccc2c(c1)nnn2C1CCN(S(=O)(=O)c2ccc3ccccc3c2)CC1	4.5%	/	i
CCOC(=O)Cn1c(=O)oc2cc(S(=O)(=O)NCC3CCCO3)ccc21 (centres undefined)	-3.4%	-0.33	i
N#Cc1ccc(CSc2nnc(-c3ccccc3)n2Cc2ccco2)cc1	-2.1%	/	i
Cc1nc2ccc(S(=O)(=O)NC(C(=O)N3CCC(C)CC3)C(C)C)cc2s1 (centres undefined)	1.5%	0.62	i
CCOc1cc(CN2CCCCC2)ccc1OC	-0.7%	0.2	i
Cc1cc2oc(=O)cc(CN3CCCCC3)c2cc1C(C)C	3.6%	0.32	i
Cc1ccc(-n2c3c(cc(C(=O)N4CCN(C)CC4)c2=O)C(=O)CC(C)(C)C3)cc1	-12%	1.2	i
CCOC(=O)CNC(=O)CSc1nnc(-c2ccc(OC)cc2)n1CC	-2.5%	/	i
COc1ccc(-n2c3c(cc(C(=O)Nc4ccc(C)cc4)c2=O)C(=O)CCC3)cc1	0.5%	/	i
COc1ccc(CNC(=O)c2cccc3c2C(=O)N(Cc2cccnc2)C3)cc1	1.0%	1.1	i

The list goes on; the last four above are carried over.
SMILES	Hsc70 ATP site	WNV NS2B-NS3 inh	MT1-MMP reporter
Cc1ccc(-n2c3c(cc(C(=O)N4CCN(C)CC4)c2=O)C(=O)CC(C)(C)C3)cc1	-12%	1.2	i
CCOC(=O)CNC(=O)CSc1nnc(-c2ccc(OC)cc2)n1CC	-2.5%	/	i
COc1ccc(-n2c3c(cc(C(=O)Nc4ccc(C)cc4)c2=O)C(=O)CCC3)cc1	0.5%	/	i
COc1ccc(CNC(=O)c2cccc3c2C(=O)N(Cc2cccnc2)C3)cc1	1.0%	1.1	i
COc1ccc(OC)c(NC(=O)C2CCCNC2=O)c1 (centres undefined)	-0.4%	0.12	i
Clc1ccc(-c2nn3cnnc3s2)c(Cl)c1	-4.1%	-1.2	i
O=C(Nc1nc2ccccc2s1)C1CC(=O)N(c2ccc(Br)cc2)C1 (centres undefined)	0.7%	/	i
Cc1cc(-c2ccccc2)nc(SCc2ccc(C(=O)O)o2)n1	0.7%	-0.005	i
CC(=O)C(Sc1ccc2nnc(-c3ccc(F)cc3)n2n1)C(C)=O	3.2%	1.4	i
CC(C)(C)c1ccc(C2(C)NC(=O)N(CC(=O)c3ccc[nH]3)C2=O)cc1 (centres undefined)	-7.3%	/	i
CNC(=O)CCc1nc(-c2ccc(C(C)(C)C)cc2)no1	-4.1%	-1.2	i
CCCN1C(=O)c2ccc(C(=O)NC3CCCCC3)cc2C1=O	-0.9%	-0.57	i
Oc1ccc(Br)cc1/C=N/n1cnc2ccccc21	-10%	-1.6	i
Cc1cc(C)n(-c2ccc(F)cc2)c(=O)c1C(=O)O	7.2%	0.26	i
O=C(O)c1cc2ccc3ccccc3c2oc1=O	3.3%	/	i
Cc1ccc(-c2nc(C#N)c(NCCN3CCCCC3)o2)cc1	-0.6%	1.5	i
CCN(CC)CCN1C(=O)c2ccccc2NC1c1ccc(N(C)C)cc1 (centres undefined)	-1.4%	/	i
Cn1c(=O)[nH]c(=O)c2c1nc(Br)n2CCCSc1nc2ccccc2o1	2.1%	-0.41	i
O=C(O)Cn1ncc2c1-c1ccoc1CC2	5.4%	1.2	i
CCOC(=O)N1CCC(NC(=O)Cn2ncc3c2-c2cc(C)ccc2OC3)CC1	-0.3%	-0.55	i
CCc1c(C)nc2cc(-c3ccc(OC)c(OC)c3)nn2c1N1CCC(C)CC1	-3.2%	/	i
O=C(OCc1cccs1)c1ccccc1NS(=O)(=O)c1ccc2c(c1)OCCO2	1.9%	-0.56	i
COc1ccc(OC)c(-c2nc(C)sc2CC(=O)O)c1	9.5%	0.25	i
COc1ccc(N=c2oc3cc(O)ccc3cc2C(=O)NCC2CCCO2)c(OC)c1 (centres undefined)	11%	0.39	i
CCC1Oc2ccc(C)cc2N(CC(=O)N(Cc2ccncc2)Cc2ccco2)C1=O (centres undefined)	1.5%	/	i
CCc1nc(SCC(=O)N2CCCC2)c2ccccc2n1	-2.1%	-0.87	i
CCNS(=O)(=O)c1ccc(NS(=O)(=O)c2cc(C)ccc2C)cc1	0.3%	-2.2	i
CCOC(=O)c1snc(-c2ccc(F)cc2)c1N	-0.6%	1	i
CN1CCCC(OC(=O)c2ccc3c(c2)OCCO3)C1 (centres undefined)	2.4%	-0.15	i

Grouped by structure: those above with an NH in an aromatic ring
SMILES	Hsc70 ATP site	WNV NS2B-NS3 inh	MT1-MMP reporter
COC(=O)c1ccc(COc2ccc(-c3nn[nH]n3)cc2)cc1	-1.9%	-0.97	i
Cc1cc(-c2n[nH]c(=S)o2)c(C)n1-c1ccccc1	5.3%	/	i
COc1ccc(-c2n[nH]c(C)c2-c2ccc(Cl)cc2)c(O)c1	0.3%	/	i
CC(C)(C)c1ccc(C2(C)NC(=O)N(CC(=O)c3ccc[nH]3)C2=O)cc1 (centres undefined)	-7.3%	/	i
Cn1c(=O)[nH]c(=O)c2c1nc(Br)n2CCCSc1nc2ccccc2o1	2.1%	-0.41	i

Other structures follow.
SMILES	Hsc70 ATP site	WNV NS2B-NS3 inh	MT1-MMP reporter
Cc1cc(C)n(-c2nnc(C)n2/N=C/c2ccccc2O)n1	1.6%	/	i
O=C(CN(C(=O)c1ccco1)c1cccc(F)c1)NCc1ccc(F)cc1	-0.6%	-0.28	i
COc1cccc(CC(NC(C)=O)C(=O)NC2CCN(c3c4c(nc5ncnn35)CCC4)CC2)c1 (centres undefined)	2.9%	-0.03	i
Cc1ccc(NC(=O)c2ccco2)cc1C	-6.6%	0.78	i
O=C(Nc1nc2ccccc2n1Cc1ccc(Cl)cc1)c1ccco1	8.8%	-0.93	i
CCOC(=O)c1ccc(NC(=O)Cn2cc3c(n2)CCC(C)C3)cc1 (centres undefined)	4.9%	0.18	i
Cc1cc(-c2cccnc2)c(C#N)c(SCC#N)n1	-3.5%	-0.54	i
c1ccc(Cc2cc(-c3ccccc3)on2)cc1	-2.8%	/	i
O=C(NCCCN1CCOCC1)c1ccc(CS(=O)(=O)c2c(Cl)cccc2Cl)o1	5.1%	0.28	i
CC(C)CCNC(=O)Cn1c(=O)oc2cc(S(=O)(=O)N3CCc4ccccc43)ccc21	-1.8%	-0.72	i
Cc1cc(C)n(-c2nc(N(C)C)nc(N(C)C)n2)n1	2.3%	/	i
O=C(NCc1ccc(Cl)c(Cl)c1)c1cccnc1	-4.8%	-0.03	i
Cc1ccc2nc(CSc3nnc(-c4ccco4)n3-c3ccccc3)cc(=O)n2c1	-5.7%	1.4	i
O=C(O)CCC(=O)Nc1ccc(F)cc1	0.6%	/	i
COc1ccc(C2NC3=C(CCC3)C3(C#N)C(OC)(OC)N=C(N)C23C#N)cc1 (centres undefined)	7.9%	0.26	i
CCc1ccccc1S(=O)(=O)Cc1ccc(C(=O)NCC2CCCO2)o1 (centres undefined)	-1.2%	0.62	i
COc1ccc(NS(=O)(=O)c2ccc(S(=O)(=O)N3CCCC3)cc2)cc1	3.4%	/	i
CC(=O)Nc1cc2c(cc1NC(=O)c1cnccn1)OCCO2	-2.1%	-1.1	i
Cc1ccc(-n2ncc3c2ncn2c(-c4ccncc4)nnc32)cc1	-5.8%	1	i
COCCOC(=O)c1c(C)n(C)c2ccc(OC(=O)N3CCOCC3)cc12	-5.6%	-0.48	i
Cc1ccc(C(O)CN2C3=NCCCN3c3ccccc32)cc1 (centres undefined)	-1.1%	/	i
Cc1ccc2cc(COC(=O)c3ccncc3)c(=O)[nH]c2c1	-2.1%	-1.2	i
COC(=O)CCC(=O)Nc1nnc(C(F)(F)F)s1	3.1%	/	i
O=C(CSc1nnc(-c2ccco2)o1)c1ccccc1	-0.1%	-0.54	i
COc1ccc(C(=O)/C=C\N2CCOCC2)cc1	3.2%	0.32	i

The results go on:
SMILES	Hsc70 ATP site	WNV NS2B-NS3 inh	MT1-MMP reporter
CC1(C)Cc2ccccc2C(=NCCCCCC(=O)O)N1	0.7%	/	i
COc1ccc(C(=O)N2CCC(N3CCN(c4ccccc4)CC3)CC2)cc1	2.6%	/	i
CCC(=O)N1CCc2cc(S(=O)(=O)NC(Cc3ccccc3)C(=O)NC3CCCCC3)ccc21 (centres undefined)	0.5%	/	i
O=C(CN1CCN(C2CCCCC2)CC1)c1ccc2cc[nH]c2c1	8.5%	1.9	i
CSc1nnc(Cn2c(=O)sc3ccccc32)n1-c1ccccc1C	0.9%	0.13	i
O=C(NCC1CCCO1)c1cccnc1Nc1ccccc1F (centres undefined)	-0.5%	-0.04	i
CC1CCN(C(=O)C2Cc3ccccc3CN2S(=O)(=O)c2ccc(F)cc2)CC1 (centres undefined)	-4.6%	0.65	i
CCCCNCCCCOc1ccccc1	-6.1%	/	i
COc1nn(CC(=O)N2N=C(C)CC2(O)C(F)F)cc1[N+](=O)[O-] (centres undefined)	5.3%	/	i
Cc1ccc(C2=Nc3ccccc3NC(C)(c3ccc(C)o3)C2)o1 (centres undefined)	-1.1%	0.58	i

Screens: PubChem BioAssay, several laboratories
